Screening results as filed in PubChem.
ALR inh: inhibitors of human ALR sulfhydryl oxidase, primary screen, biochemical, H2O2 detection, HRP-luminol luminescence, single point. FAD-linked sulfhydryl oxidase ALR (Homo sapiens), P55789. purified ALR, DTT oxidation. inhibition, % (no concentration beside the values). 3.8% of 290,000 active;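 active = mean and each replicate at 75% or more; inconclusive = only one of the two met; inactive = neither met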;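 also: stock transfer was 7.5 nL into about 7.5 µL; 0% = neutral wells and 100% = wells with inactivated enzyme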
Target sequence (P55789 whole entry, looked up): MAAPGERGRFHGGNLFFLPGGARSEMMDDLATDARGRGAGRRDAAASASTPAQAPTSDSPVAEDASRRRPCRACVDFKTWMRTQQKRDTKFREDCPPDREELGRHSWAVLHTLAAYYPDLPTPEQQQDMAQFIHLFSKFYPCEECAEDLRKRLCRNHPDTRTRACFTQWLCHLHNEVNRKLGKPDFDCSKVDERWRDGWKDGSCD
AF4-AF9 inh: inhibitors of AF4 peptide binding to AF9, primary screen, biochemical, AlphaScreen, biotin-AF4 peptide, FLAG-AF9, single point; Protein AF-9 (Homo sapiens), P42568; inhibition, % at 10 µM; 0.47% of 350,000 active; AID 651704, 2012;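 active = every replicate reaching a set inhibition limit, whatever the replicate mean, cut at about 25% in these data; inconclusive = mean inhibition reaches that limit but some replicates miss it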;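 also: 0% = plate neutral control median and 100% = total signal loss; the record names both 10 and 1 µM as test concentration; the first replicate is given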
Target sequence (P42568 whole entry, looked up): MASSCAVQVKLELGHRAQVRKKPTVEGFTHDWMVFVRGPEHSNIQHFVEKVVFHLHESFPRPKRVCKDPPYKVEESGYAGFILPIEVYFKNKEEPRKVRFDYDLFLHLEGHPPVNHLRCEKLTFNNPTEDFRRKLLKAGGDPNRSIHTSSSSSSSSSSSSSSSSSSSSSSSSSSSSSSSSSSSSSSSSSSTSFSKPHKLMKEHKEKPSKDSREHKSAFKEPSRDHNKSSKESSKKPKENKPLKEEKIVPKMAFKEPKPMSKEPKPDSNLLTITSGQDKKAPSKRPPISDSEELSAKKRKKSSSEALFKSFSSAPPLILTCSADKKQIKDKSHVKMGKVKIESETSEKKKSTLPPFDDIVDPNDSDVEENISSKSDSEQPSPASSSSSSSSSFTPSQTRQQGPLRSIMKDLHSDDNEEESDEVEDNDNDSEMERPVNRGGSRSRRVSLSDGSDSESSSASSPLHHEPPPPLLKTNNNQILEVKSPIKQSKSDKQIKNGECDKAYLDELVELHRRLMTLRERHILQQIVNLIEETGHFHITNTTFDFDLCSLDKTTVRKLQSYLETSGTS
Ecoli rRNA inh: reduced GFP signal of wild-type E. coli, primary screen, bacterial rRNA inhibitor project, GFP/RFP fluorescence, OD600, single point. E. coli WT GFP vs humanized-ribosome RFP mutants, 24 h; hits give low values; DMSO median 0, no signal -100. 1.6% of 350,000 active. GFP signal change (wild-type ribosome), % (test concentration not listed);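 active = significant combined selectivity score with lowered wild-type GFP, culture density cut under 30%, mutant RFP and density less affected; inactive = any of these conditions unmet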; also: one replicate is shown; some compounds called inactive have numbers as strong as hits
HNF4A DNA FP: change in binding of human HNF4A to DNA, primary screen, biochemical, fluorescence polarization, FITC-DNA | 1 h | 0.3% of 360,000 active | Hepatocyte nuclear factor 4-alpha (Homo sapiens), P41235 | activity change, % at 10 µM; in the data active = activity change above about 30%, passing the limit was not always enough;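 also: controls were the assay level and a saturating level of protein; the project sought stronger binding though the title names inhibitors; some compounds called inactive have numbers as strong as hits; positive values seem to mean higher polarization but the record does not say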
Vif TR-FRET: inhibitors of Vif binding to APOBEC3G peptide, primary screen, biochemical, TR-FRET, GST-Vif 1-94, biotin-A3G peptide, dose response retest (AID 1117319); Virion infectivity factor (Human immunodeficiency virus type 1 group M subtype B (isolate …; TR-FRET GST-Vif / biotin-A3G peptide binding; higher % means a stronger effect; test concentration not given here; strong numbers were not always called active; 0.57% of 260,000 active; inhibition, %; hits with a dose series show IC50 in µM;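 active = above the screen mean plus three standard deviations and confirmed in dose response; inconclusive = results disagree or hit not tested in dose response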;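 also: Vif residues 1-94 fused to GST binding biotinylated APOBEC3G peptide 110-148; 0% = full assay without inhibitor and 100% = GST in place of GST-Vif; retest series ran down from 100 µM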
E coli growth: E. coli growth inhibition, primary screen, OD600. Escherichia coli growth, 23 h; hits give low values. OD600 absorbance (test concentration not listed). 0.21% of 330,000 active. AID 1053175, 2014;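 active = OD600 absorbance below the run mean of sample wells minus 3.6 SD, in any replicate, cut at about 0.56 in these data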;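 also: stock transfer was 300 nL into about 60 µL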
FGF22 binding: binders of human FGF22 protein, primary screen, FGF22 synaptogenesis inhibitor project, biophysical, thermal shift, single point; Fibroblast growth factor 22 (Homo sapiens), Q9HCT0; recombinant FGF22 thermal shift, SYPRO orange fluorescence; percent of sucrose octasulfate shift, DMSO zero; calls only at 9.99 µM; 1.5% of 340,000 active; AID 651658, 2012;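 active = melting point raised past a set limit in the mean and every replicate; inconclusive = no clear call; three in four hits are not shown here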
Target sequence (Q9HCT0 whole entry, looked up): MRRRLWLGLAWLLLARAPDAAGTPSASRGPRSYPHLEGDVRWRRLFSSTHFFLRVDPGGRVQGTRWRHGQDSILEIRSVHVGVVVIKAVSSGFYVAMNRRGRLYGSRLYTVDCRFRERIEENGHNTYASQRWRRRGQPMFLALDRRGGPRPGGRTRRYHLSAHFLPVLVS
Ecoli rRNA inh OD600: further read-out of Ecoli rRNA inh, marked with its call; OD600 change, %; measured here: OD600 growth;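 optical density of the mix in the first replicate; 0 = DMSO median and -100 = no signal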
Ecoli rRNA inh RFP: second read-out of Ecoli rRNA inh, no call of its own (marks repeat the call); RFP signal change, %; measured here: RFP humanized mutant strains;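 first replicate; 0 = DMSO median and -100 = no signal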
* = called active by the depositor; i = inactive; ? = inconclusive; · = no result given; + = active, no number; & = joins results of further samples.

Each structure is followed by: ALR inh, AF4-AF9 inh, Ecoli rRNA inh, Ecoli rRNA inh OD600, Ecoli rRNA inh RFP, HNF4A DNA FP, Vif TR-FRET, E coli growth, FGF22 binding
CCOc1ccc(C(=O)Nc2cccc(NC(=O)c3cccs3)c2)cc1[N+](=O)[O-]
  ·, 1.7, -30, -27, -4.0, -2.0, 20%, 0.68, i
CC(=O)N1CCN(S(=O)(=O)c2cccc(C(=O)OCN3C(=O)c4ccccc4C3=O)c2)CC1
  -2, 2.4, 2, 16, -0.6, 3.2, ·, 0.67, i
Cc1cc2c(c(SCC(=O)Nc3ccc(C)c(C)c3)n1)C(=O)OC2
  -15, 1.7, 6, -2, -1.4, 4.7, -2%, 0.74, i
CCC(=O)Nc1ccc2c(c1)C(=O)N(C)C[C@H](OC)[C@H](C)CN[C@@H](C)CO2
  ·, -0.7, 3, 9, -1.1, ·, ·, ·, i
C/C(=N\NC(=O)C(=O)Nc1cccc(Cl)c1C)c1ccncc1
  -5, ·, ·, ·, ·, 2.2, 4%, ·, ·
CC(C)=CCC[C@](C)(OC1OC(COC2OCC(O)C(O)C2O)C(O)C(O)C1O)C1CC[C@]2(C)C1C(O)CC1[C@@]3(C)CCC(O[C@@H]4O[C@H](CO)C(O)C(O)C4O[C@@H]4OC(CO)C(O)C(O)C4O)C(C)(C)C3CC[C@]12C (some centres not stated)
  2, 0.4, 2, 1, 13, -3.7, ·, 0.71, i
COc1ccccc1[N+](=O)[O-]
  -12, ·, 3, 1, 0.3, 6.3, ·, 0.67, i
COc1cccc(NC(=O)N2[C@@H](CO)[C@@H](c3ccccc3)[C@@H]2CNCC(C)C)c1
  ·, 2.5, 1, -1, 4.9, ·, ·, ·, i
CCC(CC)NC(=O)Cc1ccccc1OC
  -1, ·, ·, ·, ·, -2.5, -7%, 0.78, ·
CCOc1ccc(NC(=O)CSc2nncn2C)cc1
  ·, -1.0, 9, 11, -0.3, -2.8, -6%, 0.66, i
Cc1cccc(C)c1NC(=O)N1CC(C)OC(C)C1 (configuration not stated)
  0, 0.9, 14, 6, -1.0, 3.5, -8%, 0.68, i
CC(=O)N(C)c1ccc(N=Nc2c(C)[nH]n(-c3ccccc3)c2=O)cc1
  -12, -25, 14, 18, -0.6, 0.3, ·, 0.67, i
C[C@H]1CN([C@@H](C)CO)S(=O)(=O)c2ccc(C#Cc3cccnc3)cc2O[C@@H]1CN(C)C(=O)Nc1ccc2c(c1)OCO2
  ·, 3.0&-9.3&-6.3, -1&-3, -8&-3, 2.1&-0.9, 12, ·, ·, i
Cc1cccnc1NC(=O)c1sc2ccccc2c1Cl
  0, -0.1, -14, -18, -4.4, 0.5, -4%, 0.69, i
NS(=O)(=O)c1cccc(NC(=O)CNC(=O)CC23CC4CC(CC(C4)C2)C3)c1
  -5, -1.4, -9, -13, -6.4, -0.3, 32%, 0.71, i
COc1ccc2c(CC(=O)N(C)CC3COc4ccccc4O3)coc2c1 (configuration not stated)
  -60, ·, ·, ·, ·, 7.6, -3%, 0.74, ·
CO[C@@H]1CC[C@H]2CCN(C)C(=O)[C@H](C)CN(C)C(=O)c3cccc(C#N)c3OC[C@@H]1O2
  ·, 4.0, 3, -4, -1.5, ·, ·, ·, i
CN1[C@@H]2c3ccc(C4=CCCCC4)c(=O)n3C[C@@H]2[C@@H](CO)[C@@H]1C(=O)NCc1ccccc1
  ·, 3.0, -8, -9, -0.8, ·, ·, ·, i
COc1ccc(S(=O)(=O)NCc2cc(=O)n(C)c(=O)n2C)cc1F
  -1, -1.7, 17, 16, 1.2, -0.4, -2%, 0.72, i
CCc1ccc2c(c1)C(c1ccc([N+](=O)[O-])cc1)=NNC(c1ccc(Br)cc1)=N2
  ·, 4.7, 10, 6, 0.7, -0.7, 8%, 0.72, i
CC(=O)Nc1cccc(-c2nnc(SCC(=O)n3c4c(c5ccccc53)CCCC4)n2C)c1
  -20, ·, ·, ·, ·, 3.2, -5%, 0.68, ·
COCc1cc(/C=N\NC(=O)COc2ccc(Cl)cc2)ccc1OC
  -2, ·, ·, ·, ·, -1.7, -6%, ·, ·
COC(=O)c1ccc(C(=O)OC)c(NC(=O)C(C)(C)C)c1
  37, 1.6, 0, 5, -0.8, -1.7, 7%, 0.7, i
CC(=O)N[C@H]1CC[C@@H](CCNC(=O)C2CCC2)O[C@@H]1CO
  ·, -1.6, 2, 5, -1.9, ·, ·, ·, i
COc1ccc(C(=O)N/C(=C\c2cn(S(=O)(=O)N(C)C)c3ccccc23)C(=O)NCCCn2ccnc2)cc1
  -6, 17, -5, -14, 2.2, 0.9, -2%, 0.71, i
COc1ccc(NC(=O)Nc2ccc3c(c2)C(=O)N([C@@H](C)CO)C[C@@H](C)[C@@H](CN(C)CC2CCCCC2)OCCCC[C@H](C)O3)cc1
  ·, 0.6, 2, -7, 6.2, ·, ·, ·, +
CN(C)CCCNC(=O)C[C@H]1C=C[C@@H](NS(=O)(=O)c2ccc(F)cc2)[C@@H](CO)O1
  ·, -1.7, 4, 3, -4.0, ·, ·, ·, i
CCOc1ccc(/C=N/n2cc(-c3ccccc3)[nH]c2=S)cc1
  11, -1.7, -14, -6, -2.5, 1.2, ·, ·, i
C[C@H]1CN([C@@H](C)CO)S(=O)(=O)c2ccc(-c3ccccc3)cc2O[C@H]1CN(C)C(=O)C1CCC1
  ·, -2.3, -14, -35, 18, -0.2, 13%, ·, i
Cc1cccc(N2CCN(C(=O)c3ccc(NC4=NC5CS(=O)(=O)CC5S4)cc3)CC2C)c1 (configuration not stated)
  72, 3.5, 3, 5, -0.4, 7.6, ·, 0.7, i
COC(=O)NNC(=O)COc1ccccc1C
  16, ·, ·, ·, ·, -1.6, -3%, 0.68, ·
CC(C)COC(=O)Cn1cnc2ccc(Br)cc2c1=O
  4, ·, ·, ·, ·, 2.4, -3%, 0.76, ·
CC(=O)c1cc(Cl)ccc1OCC(=O)Nc1cccc(S(=O)(=O)N2CCCC2)c1
  ·, 1.5, 2, 10, -1.8, 2.3, ·, 0.67, i
C[C@@H]1CN([C@@H](C)CO)C(=O)c2cc(NS(C)(=O)=O)ccc2O[C@@H]1CN(C)C(=O)Nc1cccc2ccccc12
  ·, -0.6, 2, 31, -2.2, ·, ·, ·, i
CN(C)CCNC(=O)c1ccc(COCC(F)(F)F)cc1
  0, -18, 12, 23, 1.4, -6.5, 19%, 0.67, i
COc1ccc(/C=C\C(=O)c2c(O)ccc3c(C)cc(=O)oc23)cc1
  97*, ·, ·, ·, ·, -3.1, 0%, 0.76, ·
CCOc1ccc(N(CC(=O)N2CCN(c3ccc(F)cc3)CC2)S(=O)(=O)c2c(C)noc2C)cc1
  -4, 6.3, -10, -4, -5.9, 2.9, -2%, 0.7, i
Cc1ccc(Cl)cc1N1CCN(Cc2nc3ccsc3c(=O)[nH]2)CC1
  -12, ·, ·, ·, ·, -2.8, 0%, 0.76, ·
O=C(COC(=O)c1ccccc1O)Nc1cc(S(=O)(=O)N2CCCCCC2)ccc1Cl
  -2, 1.4, ·, ·, ·, 1.0, -4%, 0.7, i
O=C(c1cc(-c2ccncc2)nc2ccccc12)N1CCCC(C(F)(F)F)C1 (configuration not stated)
  ·, -2.2, -9, -9, 5.0, -0.3, ·, ·, i
O=C(C[C@@H]1C[C@@H]2c3cc(NC(=O)NC4CCCC4)ccc3O[C@@H]2[C@H](CO)O1)NCc1ccc(-c2ccccc2)cc1
  ·, 0.1, 0, 1, 2.5, ·, ·, ·, i
C[C@H](CO)N1C[C@H](C)[C@@H](CN(C)Cc2ccc(C(=O)Nc3ccccc3N)cc2)Oc2c(NS(=O)(=O)c3cn(C)cn3)cccc2C1=O
  ·, 3.7, 2, 5, 1.6, ·, ·, ·, i
CC(C)NC(=O)Nc1ccc2c(c1)CC(=O)N([C@H](C)CO)C[C@H](C)[C@@H](CN(C)S(=O)(=O)c1cccs1)O2
  ·, -10, 4, 4, -0.1, ·, ·, ·, i
COc1cc(C(=O)Nc2ccc(S(=O)(=O)N3CCc4ccccc43)cc2)cc(OC)c1OC
  -7, ·, ·, ·, ·, -0.6, 20%, 0.67, ·
COc1ccc(CCN(C)C(=O)c2ccc3c(=O)n4c(nc3c2)CCCCC4)cc1OC
  ·, 4.1, 4, 1, 0.4, 1.0, ·, 0.7, i
O=C(NCc1ccccc1Cl)c1cccc(OC2CCN(C(=O)C3CC3)CC2)c1
  -3, -1.1, 1, -21, 1.2, 1.9, ·, 0.68, i
Cn1c(=O)cc(-c2ccccc2)c2ccccc21
  2, ·, ·, ·, ·, -1.2, 0%, 0.68, ·
C=CC(=O)N1C/C(=C/c2ccc(F)cc2)C(=O)/C(=C\c2ccc(F)cc2)C1
  ·, -2.0, -54, -72, -20, -47, 7.4µM*, ·, i
Cc1ccc(-n2cc(CNCCCN3CCCC3=O)c(-c3ccc(F)cc3)n2)cc1
  -2, ?, -9, -6, 2.1, -2.9, 16%, 0.67, i
O=C(CN1CCCC1c1cccs1)N1CCN(S(=O)(=O)c2cccc(F)c2)CC1 (configuration not stated)
  ·, 1.4, 2, -8, 15, 0.0, -1%, 0.68, i

Later entries.
Each structure is followed by: ALR inh, AF4-AF9 inh, Ecoli rRNA inh, Ecoli rRNA inh OD600, Ecoli rRNA inh RFP, HNF4A DNA FP, Vif TR-FRET, E coli growth, FGF22 binding
COc1cc(C(=O)OCC(=O)Nc2nnc(-c3ccccc3)o2)cc(OC)c1OC
  ·, -15, 3, 4, 0.6, -0.9, 5%, 0.63, i
CS(=O)(=O)Nc1nc2n(n1)C(c1ccccc1)C=C(c1ccc(Br)cc1)N2 (configuration not stated)
  56, ·, ·, ·, ·, -52, 6%, 0.7, ·
CN1C(=O)C(C)(C)c2cc(S(=O)(=O)N3CCCC(C(=O)NCc4ccc(Cl)cc4)C3)ccc21 (configuration not stated)
  -4, -3.1, -14, -22, -1.7, 0.3, ·, 0.73, i
O=C(c1ccccc1)N1[C@H](CO)[C@H](c2ccccc2)C12CN(Cc1nccs1)C2
  ·, 0.4, 0, 4, 0.7, ·, ·, ·, i
CCOC(=O)[C@H]1[C@H]2COc3ccc(Br)cc3[C@@H]2N2C(=O)CN(Cc3ccc(OC)cc3)C(=O)[C@@]12C
  -9, -0.4, -11, -12, 13, 4.5, ·, ·, i
CCS(=O)(=O)N1CC(=O)N2[C@H](C1)[C@@H](c1ccc(C#Cc3cccc(F)c3)cc1)[C@@H]2CO
  ·, -5.0, -29, -39, 1.0, ·, ·, ·, i
Cc1ccc(S(=O)(=O)Nc2cccc3c2O[C@H](CN(C)Cc2ccc(Cl)c(Cl)c2)[C@@H](C)CN([C@H](C)CO)C3=O)cc1
  ·, -13, 1, -1, 0.5, ·, ·, ·, i

These rows are one share of the data; the hit share may differ from the screen's.
